# PINK1 modulator = A Quantitative High throughput Screen to Identify Chemical Modulators of PINK1 Expression. AID 624263, 2012. 0.2% of 410,000 active. Potency, µM (titrated, usually from 76.6 µM), inactives show top-dose activation (PINK1 increase), most hits filed as activators. PINK1 immunofluorescence, high-content cytometry, 24 h; active = well fitted activation curve with a large enough effect; inconclusive = small, poorly fitted or top-dose-only effect; inactive = flat fitted curve, though single readings scatter; cell line not stated here;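 also: potency is read from the fitted curve at half-maximal effect; % of control where 0% means no effect; nearly all actives have a fitted effect of over 65% in size; a mitochondrial uncoupler was the plate control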
#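 Readout is PINK1 immunofluorescence, quantified alongside mitochondrial, cell and nuclear markers by laser-scanning microplate cytometry. Cells from a stable line were exposed to compound titrations (5 concentrations) for 24 hours, with CCCP controls.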
# D2 potentiator = Beta-Arrestin HTS for Positive Allosteric Modulators of the Human D2 Dopamine Receptor: Potentiators; DiscoveRx D2 beta-arrestin cells, luminescence, 90 min; 100% = 57 uM dopamine signal; potentiation, % (test concentration not listed); 0.23% of 360,000 active; active = potentiation of 50% or more; inconclusive = 30% to 50%; inactive = 30% or less;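 also: compound concentration not given in the record; tested on top of an EC20 dose of dopamine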
# Target sequence (P14416 whole entry, looked up): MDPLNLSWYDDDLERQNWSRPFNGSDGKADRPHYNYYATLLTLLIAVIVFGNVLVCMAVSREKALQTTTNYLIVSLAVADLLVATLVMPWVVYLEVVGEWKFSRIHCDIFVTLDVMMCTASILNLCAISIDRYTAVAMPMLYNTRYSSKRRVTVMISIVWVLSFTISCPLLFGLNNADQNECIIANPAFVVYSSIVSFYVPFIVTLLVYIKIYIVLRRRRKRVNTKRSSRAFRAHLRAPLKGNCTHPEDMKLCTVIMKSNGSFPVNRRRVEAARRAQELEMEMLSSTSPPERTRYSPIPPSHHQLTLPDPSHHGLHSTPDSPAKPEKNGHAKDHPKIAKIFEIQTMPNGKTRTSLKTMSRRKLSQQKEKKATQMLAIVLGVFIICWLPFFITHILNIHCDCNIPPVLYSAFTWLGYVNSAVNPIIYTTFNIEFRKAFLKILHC
#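 PathHunter D2 cells, attached overnight at 37 deg C, received compound in DMSO plus dopamine at EC20 (50 nM final) for 90 min at 37 deg C. Beta-arrestin recruitment was read as luminescence after 1 h with detection reagent at ambient temperature.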
# D2 agonist = Beta-Arrestin HTS for Positive Allosteric Modulators of the Human D2 Dopamine Receptor: Agonists. DiscoveRx PathHunter D2 beta-arrestin, luminescence, 90 min; 100% = 57 uM dopamine signal. AID 624465, 2012. D(2) dopamine receptor (Homo sapiens), P14416. activation, % (test concentration not listed). 0.084% of 360,000 active; in the data active = activation above about 40%; inconclusive = about 15% to 40%; inactive = below about 15%; also: compound concentration not given in the record; the text of the record calls up to 30% inactive
#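 DiscoveRx PathHunter D2 beta-arrestin cells (2,100/well) attached overnight, then compound-stimulated 90 min at 37 C in HBSS/10 mM HEPES/0.1% Tween-20 buffer; beta-galactosidase complementation read by luminescence after 1 h at ambient temperature. Dopamine 57 uM final (EC100) as control.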
# TRPML1 ag = qHTS for Agonists of the Human Mucolipin Transient Receptor Potential 1 (TRPML1) | activation, % (no concentration beside the values) | Mucolipin-1 (Homo sapiens), Q9GZU1 | TRPML1-expressing cells, Ca2+ dye fluorescence, FDSS; host cell line not named in the record; reference of the full effect not given here | 0.12% of 410,000 active; in the data active = activation above about 50%; inconclusive = about 30% to 50%; inactive = below about 30%; also: 0% is about no effect; the text of the record puts the active cut at 80%
# Target sequence (Q9GZU1 whole entry, looked up): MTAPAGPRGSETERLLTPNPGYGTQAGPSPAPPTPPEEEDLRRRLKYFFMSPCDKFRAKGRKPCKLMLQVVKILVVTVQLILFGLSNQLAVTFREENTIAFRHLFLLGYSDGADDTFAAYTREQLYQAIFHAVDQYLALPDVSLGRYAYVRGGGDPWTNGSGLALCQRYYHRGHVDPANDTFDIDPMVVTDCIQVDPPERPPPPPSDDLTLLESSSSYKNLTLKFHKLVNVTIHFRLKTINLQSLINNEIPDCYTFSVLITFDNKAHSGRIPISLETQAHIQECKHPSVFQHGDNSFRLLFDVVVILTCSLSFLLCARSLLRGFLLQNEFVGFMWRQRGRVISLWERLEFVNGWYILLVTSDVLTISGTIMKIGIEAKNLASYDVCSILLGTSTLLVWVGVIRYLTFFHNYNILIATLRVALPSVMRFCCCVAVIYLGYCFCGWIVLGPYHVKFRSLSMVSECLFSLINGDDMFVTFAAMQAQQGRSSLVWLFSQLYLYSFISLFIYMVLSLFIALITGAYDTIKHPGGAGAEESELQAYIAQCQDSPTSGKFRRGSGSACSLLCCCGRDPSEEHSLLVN
#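 Tetracycline-induced TRPML1-DL cells are seeded and incubated overnight before loading with a no-wash Ca2+ dye and quencher. Agonist activity is taken from the 110 s fluorescence read following compound pin-transfer on an FDSS, before EC80 54-4 challenge.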
# TRPML1 inh = qHTS for Inhibitors of the Human Mucolipin Transient Receptor Potential 1 (TRPML1). 0.02% of 390,000 active. activity change, negative = inhibition, % (test concentration not listed). Mucolipin-1 (Homo sapiens), Q9GZU1. TRPML1-inducible cells, Ca2+ dye fluorescence, FDSS; active compounds read low; inhibition of EC80 agonist-evoked calcium signal; in the data active means activity change below about -50%; inconclusive means about -30% to -50%; inactive means above about -30%;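 also: stimulus is agonist 54-4 at its EC80 concentration; % is scaled to controls: 0 for no effect and ±100 for the full control effect; compound concentration not given in the record; the text of the record puts the active cut at -80%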
#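 TRPML1-DL cells, Tet-induced overnight (~16 h, 37 °C) at 1,500 cells/well, were loaded with Ca8 no-wash dye plus quencher for 45-90 min at room temperature. Compounds were pinned during FDSS kinetic reading; agonist 54-4 at EC80 (4 uM final) then added.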
# Six1-Eya2 inh = qHTS Assay for Inhibitors of the Six1/Eya2 Interaction. AlphaScreen GST-Six1/His-Eya2 binding, biochemical; active compounds read low; control for the full effect not named in the record. Homeobox protein SIX1 (Homo sapiens) + Protein phosphatase EYA2 (Homo sapiens), …. 0.56% of 360,000 active. activity change, % (no concentration beside the values); in the data active = activity change below about -65%; inconclusive = about -30% to -65%; inactive = above about -30%; also: % is scaled to controls: 0 for no effect and ±100 for the full control effect
#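 Six1/Eya2 binding was read as AlphaScreen signal after compounds were pinned into GST-Six1 plus His-tagged Eya2 (5X stock 250/500 nM) in pH 8.0 Tris/NaCl/TCEP buffer, beads added, then incubated 1 h, 37 C, dark.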
# Numbers without * were called inactive; ? = inconclusive; / = no result given; & = joins results of further samples; [ ] = another dose, or the depositor's remark.
SMILES,PINK1 modulator,D2 potentiator,D2 agonist,TRPML1 ag,TRPML1 inh,Six1-Eya2 inh
Cc1cc(N2CCN(S(=O)(=O)c3ccccc3)CC2)c2ccccc2n1,0.1%[38.3 µM],-8.0,-2.7,2.8,2.0,-1.1
Cc1cc2c(OCC(O)CNCc3ccco3)cccc2[nH]1 (stereo not given),-0.1%,-31.2,-7.6,-0.1,-4.9,-23.5
COc1cccc2c(Nc3ccccc3C)cc(C)nc12,25.2%,-15.1,-5.3,0.2,-14.8,-25.4
COC(=O)COc1nc(C)c2c(c1C#N)CC(C)(C)OC2,0.4%,-6.5,-2.1,0.7,35.7,10.2
CCCn1c(SCC(=O)NCc2ccco2)nc2c1c(=O)n(C)c(=O)n2C,1.6%,-5.4,-1.7,-1.4,-3.1,1.6
Cc1ccc(S(=O)(=O)N2CCC(=O)N(CCOCc3cccc(C)c3)CC2)cc1,-0.5%,-12.8,-0.4,0.0,-10.1,1.8
CC(=O)N1C(c2ccccc2O)C[C@]2(C)CC(=O)NC12 (stereo not given in full),-1.2%,-5.2,-5.0,0.1,-0.2,-0.2
COc1ccc(N(CCC#N)C(=O)/C(C#N)=C\c2cccs2)cc1,-1.1%,-1.1,2.3,3.3,-6.8,-7.8
Cc1nnsc1C(=O)NC1CCCc2c1cnn2-c1cc(F)cc(F)c1 (stereo not given),-1.6%,2.5,-3.8,0.3,0.4,3.3
COc1cc([N+](=O)[O-])ccc1NC(=S)Nc1cccc(C(=O)O)c1,-2.3%,-4.7,-3.3,-0.2,-1.2,3.7
CCCOc1ccc(C(=O)Nc2cc(S(=O)(=O)N3CCOCC3)ccc2N2CCOCC2)cc1,5.9%,-9.2,-7.9,1.0,4.4,?
CCn1c(COc2ccc(Cl)c(C)c2)nnc1SCC(=O)N1CCCC1,0.6%,1.1,-0.2,-0.6,-1.2,-0.6
COc1ccc(/C=N/NC(=O)C[n+]2ccccc2)c(OC)c1,3.3%,-2.4,-4.1,-0.4,5.7,1.2
CCc1ccc(NC(=O)C(=O)NCC(c2cccnc2)N2CCN(Cc3ccccc3)CC2)cc1 (stereo not given),1.1%,/,/,0.0,-19.1,/
Cn1c(CC(=O)c2ccc(Br)cc2)[n+](C)c2ccccc21,0.5%,-7.5,-1.9,0.6,3.0,4.8
COc1ccc(C(=O)N2CCN(C(=O)c3ccco3)CC2)cc1,5.6%,-2.3,-1.7,-0.5,-0.9,3.6
COCCNC(=O)c1ccc2c(=O)n(Cc3ccco3)c(SCC(=O)Nc3ccc(OC)cc3OC)nc2c1,8.5%,-6.9,0.5,1.1,59.4,-1.4
C/C(CC(=O)Nc1ccccn1)=N\NC(=O)c1ccc([N+](=O)[O-])cc1Cl,0.1%,13.0,-0.4,-0.3,24.6,?
CCCCOc1ccc(Cl)cc1CSc1n[nH]c(C)n1,0.2%[38.3 µM],-3.5,-2.1,-0.2,9.5,0.4
Cc1cc(OCC(=O)N2CCCC2)cc(C)c1Cl,-0.2%,-4.9,-5.5,-0.7,2.6,-0.6
COc1ccc(-n2nnc3c(=O)n(CC(=O)NCC4CCCO4)cnc32)cc1 (stereo not given),?,-5.9,0.4,0.1,3.1,1.8
Oc1[nH]c2ccccc2c1C=Nc1ccccc1,1.2%,-5.5,-4.4,1.4,11.4,-0.4
COc1cc(C2/C(=C(/O)c3ccc(OCC(C)C)cc3)C(=O)C(=O)N2CCN(C)C)ccc1O (stereo not given),-2.1%[38.3 µM],-15.1,0.3,0.2,-14.7,-3.4
Cc1ccc(CNC(=O)COC(=O)c2cncc(Br)c2)cc1,0.5%,-6.7,2.0,0.3,5.5,0.2
CCOC(=O)c1c(C)[nH]c(C)c1S(=O)(=O)N1CCCC(C(=O)NCc2ccc(C)cc2)C1 (stereo not given),-0.5%,/,/,-1.1,-0.2,/

# Ordered by value in TRPML1 inh (lowest first): three of the compounds above.
SMILES	TRPML1 inh
CCc1ccc(NC(=O)C(=O)NCC(c2cccnc2)N2CCN(Cc3ccccc3)CC2)cc1 (stereo not given)	-19.1
C/C(CC(=O)Nc1ccccn1)=N\NC(=O)c1ccc([N+](=O)[O-])cc1Cl	24.6
COCCNC(=O)c1ccc2c(=O)n(Cc3ccco3)c(SCC(=O)Nc3ccc(OC)cc3OC)nc2c1	59.4

# Next part
SMILES,PINK1 modulator,D2 potentiator,D2 agonist,TRPML1 ag,TRPML1 inh,Six1-Eya2 inh
COc1ccc(S(=O)(=O)NCc2ccco2)c2ccccc12,/,10.0,0.8,0.0,6.1,-16.6
Cc1csc2nc(-c3ccc(NS(=O)(=O)c4cc(F)ccc4F)cc3)cn12,-3.7%,/,/,1.3,-3.4,/
CCOc1ccc(C(=O)Nc2ccc3nc4c(c(Nc5ccccc5OC)c3c2)CCCC4)cc1,3.8%,/,/,3.3,17.1,/
COc1ccc(/C=C/C(=O)c2ccc3c4c(cccc24)CC3)cc1OC,-2.4%,-6.5,2.6,2.8,-10.9,1.1
Cc1nn(C(C)C(=O)NCCCN2CCCC2)c(=O)c2nn(-c3ccccc3)c(C)c12 (stereo not given),-0.1%,-5.1,1.6,-0.7,-3.2,17.4
O=P(Cc1cc(Br)cc(Br)c1OCCO)(c1ccccc1)c1ccccc1,-1.2%,-7.3,-0.6,1.5,14.7,-14.6
COc1cc(CNCCCN2CCOCC2)cc(Cl)c1OCC(=O)NC(C)(C)C,1.1%,0.5,0.5,0.2,-5.0,6.6
CN(C)C1CCCCC=CC(=O)NC1 (stereo not given),0.9%,-8.1,2.0,0.4,22.0,6.2
CC(=O)Nc1ccc(NC(=O)c2nc(S(=O)(=O)Cc3cccc(C)c3)ncc2Cl)cc1,-0.9%,-9.8,-5.2,-0.4,59.4,-10.2
O=C(O)c1ccc2oc(=O)n(Cc3ccccc3)c2c1,2.8%,/,/,0.6,7.4,/
CCN1CCN(c2cc(C)c3cc(NC(=S)N4CCC5(CC4)OCCO5)ccc3n2)CC1,3.0%,-13.8,-8.6,/,/,-11.1
Cc1cc(C)n(C(=O)c2cc3ccccc3c(=O)o2)n1,0.8%,-5.5,-1.4,-0.9,3.0,-8.5
CCn1c(Cn2nnc(-c3ccccc3)n2)nnc1SCC(=O)Nc1ccccc1,/,-8.1,-0.2,1.1,6.9,2.5
CC(=O)c1ccc(NC(=O)COC(=O)/C=C/c2cccs2)cc1,2.3%,-1.2,1.0,0.7,0.8,4.0
O=[N+]([O-])c1ccccc1S(=O)(=O)N1CCN(CC2CC=CCC2)CC1 (stereo not given),0.2%,-17.6,1.1,0.5,-8.6,-3.6
COc1c2c(cc3oc(C)cc(=O)c13)OC(C(C)(C)OC1OC(CO)C(O)C(O)C1O)C2 (stereo not given),-0.5%,-3.2,-2.0,0.1,-3.2,10.6
COc1cccc(Nc2nnc(SCC(=O)N3CC(=O)Nc4ccccc43)s2)c1,-1.0%,-7.9,-0.7,0.3,-6.3,-17.4
COc1cccc(Cn2c(OCC3CCCO3)nc3c2c(=O)n(C)c(=O)n3C)c1 (stereo not given),-0.6%,-1.4,-3.3,1.7,8.2,3.6
Cc1cccc(C)c1OCc1nnc(SCC(=O)Nc2nccs2)o1,9.1%,-3.8,4.4,0.3,10.0,-85.4*
O=C(OCc1cc([N+](=O)[O-])cc2c1OCOC2)c1ccc2ccccc2n1,9.2%,-0.6,-6.2,1.4,1.2,-1.2
c1ccc(COC2CCCN(Cc3nc(Cc4ccccc4)no3)C2)cc1 (stereo not given),3.1%,-6.4,-8.2,1.0,-20.7,21.2
O=S1(=O)CCC(N=Cc2ccc(-c3ccc(Cl)cc3)o2)C1 (stereo not given),3.6%,3.4,3.0,0.1,-19.8,-9.3
CCOC(=O)[C@@H]1[C@H]2COc3cc(OC)ccc3[C@H]2N2C(=O)N(c3ccc(F)cc3)C(=O)[C@@]12C,3.3%,-3.7,1.2,0.2,-0.1,-13.8
COc1cccc(N(Cc2nnc3n2CCCCC3)C(=O)Nc2ccccc2)c1,-0.5%&-4.4%,-4.9,2.5,0.8&0.7,-16.7&49.3,4.7
COc1ccc(C2OC(CCc3ccccc3)CC3=C2C(=O)OC(C)(C)O3)cc1 (stereo not given),4.2%,-1.7,-5.4,2.0,20.9,3.9
# New compounds follow.
SMILES,PINK1 modulator,D2 potentiator,D2 agonist,TRPML1 ag,TRPML1 inh,Six1-Eya2 inh
Cc1ccc2cc(CN(Cc3cccs3)Cc3nnnn3CC3CCCO3)c(=O)[nH]c2c1C (stereo not given),13.7%[38.3 µM],-12.7,-1.5,0.2,-1.3,-1.3
O=C(NCC1COCCO1)c1cc(COc2c(F)cccc2F)on1 (stereo not given),0.7%,-7.3,3.2,0.4,-8.7,8.2
S=C(Nc1ccc(Br)cc1Cl)N1CCCC1,1.2%,-4.6,-2.4,0.2,-15.4,6.0
O=C(COC(=O)c1cncc(Br)c1)NCc1ccc(Cl)cc1,1.9%,-5.9,-1.6,-1.0,-13.1,1.2
CCOC(=O)C1CCCN(C(=O)CCc2ccccc2)C1 (stereo not given),-0.8%,-14.4,-2.1,0.2,-0.8,10.2
O=C(O)c1ccc(/C=N/Nc2ccc(Cl)nn2)cc1,1.2%,-0.9,2.4,0.6,11.1,-0.2
CCOc1ccc(CCNC(=O)c2nnn(CC(=O)Nc3ccc(C)cc3)c2N)cc1OCC,4.3%,-8.6,2.3,-0.3,13.4,5.2
Cc1ccc(NC(=O)CCC(=O)N/N=C/C=C/c2ccccc2)cc1,-1.5%,0.0,0.4,-0.4,-10.6,-3.2
Cc1nn(C)c(C)c1S(=O)(=O)N(CC(=O)N1CCc2ccccc2C1)c1ccc(C(C)C)cc1,2.3%,-3.7,-1.2,-0.9,23.5,-8.4
CCOC(=O)c1ccc(NC(=O)C2CCCN(c3cnccn3)C2)cc1 (stereo not given),0.5%&0.0%,-12.2,-1.1,-0.6&3.6,-1.1&18.4,-2.8
O=c1c2cc(N3CCOCC3)ccc2[nH]c(=S)n1Cc1ccccn1,3.3%,-4.1,-2.3,0.4,7.3,-5.3
COc1ccc(C(=O)NCc2cccnc2)cc1S(=O)(=O)N1CCCc2ccccc21,-1.0%,4.2,-1.7,-0.8,4.1,28.7
CC(C)OC(=O)CSc1nnnn1-c1ccc2c(c1)OCCO2,/,-15.4,-1.6,1.1,-7.9,5.8
O=C(Nc1c(C(=O)Nc2cccc(C(F)(F)F)c2)oc2ccccc12)c1cc(=O)c2ccccc2o1,-1.6%,/,/,-0.3,14.8,/
CCNC(=O)COc1ccc(CC)cc1,0.5%,2.0,0.5,-0.3,1.7,3.6
Fc1cccc(Cl)c1CNCc1ccccc1Cl,1.3%,-26.9,-4.1,0.2,-9.9,26.0
C=CCn1c(SCc2csc(C)n2)nc2sc3c(c2c1=O)CCC(C)C3 (stereo not given),/,-7.2,-2.7,0.0,-15.8,-2.2

# Compound activity as filed in PubChem BioAssay.
